Methyltransferases = Primary Screen for Target Class Profiling of Small Molecule Inhibitors of Methyltransferases; purified enzyme, MTase-Glo SAH luminescence; hits give low values; calls only at 40 µM; 25,000 compounds, 3.9% hits; active = -50% or lower on at least one of six enzymes; inconclusive = the cases between; inactive = as a rule above -30% on all six;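 also: enzymes were COMT GAMT GNMT HNMT NNMT and PNMT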
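Each enzyme was assayed with SAM and its substrate. SAH formation detected by MTase-Glo luminescence; single-point 40 uM screen[…].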
Calls only; i = inactive; ? = inconclusive; + = active, no number. % is scaled to controls: 0 for no effect and ±100 for the full control effect. Only part of the results is shown; rates above refer to the full screens.

SMILES	Methyltransferases
CN1CCC(C(=O)N2CCC3(CC2)CN(C(=O)c2ccc(Cl)cc2)CCO3)CC1	i
Cc1ccc(NC(=O)N2CCn3cccc3C2C(C)C)cc1C (stereo not drawn)	i
CCCN1CCN(C(=O)Cn2c(=O)oc3cc(S(=O)(=O)NCc4ccccc4)ccc32)CC1	i
Cc1nnc([C@H]2CCN(C(=O)c3ccccc3)C2)o1	i
CCOC(=O)c1cc2n(n1)CC(C)(C(=O)NC1CCCCC1)N(Cc1cccc(C)c1)C2=O (stereo not drawn)	i
COc1ccc(C)cc1Nc1nc2c(S(=O)(=O)c3ccccc3)nnn2c2ccccc12	i
C=CCN1CCc2c(cc(O)c(O)c2Cl)C(c2ccccc2)C1 (stereo not drawn)	?
CCNC(=O)[C@@H]1C[C@H](N)CN1C(=O)C(C)(C)Oc1ccc(C)cc1	i
CCNC(=O)N1CCC(CCOC)(NS(=O)(=O)c2cccc3cccnc23)CC1	i
COc1cccc(CNc2nc3c(-c4cccc(C)c4)nnn3c3ccccc23)c1	i
CC1(C(=O)NC2CCCCCC2)Cn2c(ccc2-c2ccccc2)C(=O)N1CCN1CCOCC1 (stereo not drawn)	i
COCCN1C(=O)c2c(NC(C)=O)c3cc(OC)ccc3n2CC1(C)C(=O)NC1CCCCC1 (stereo not drawn)	i

Entries shown so far that contain an aryl methoxy group, in the order listed:
SMILES	Methyltransferases
COc1ccc(C)cc1Nc1nc2c(S(=O)(=O)c3ccccc3)nnn2c2ccccc12	i
COc1cccc(CNc2nc3c(-c4cccc(C)c4)nnn3c3ccccc23)c1	i
COCCN1C(=O)c2c(NC(C)=O)c3cc(OC)ccc3n2CC1(C)C(=O)NC1CCCCC1 (stereo not drawn)	i

In the list so far, these have a Cl atom.
SMILES	Methyltransferases
CN1CCC(C(=O)N2CCC3(CC2)CN(C(=O)c2ccc(Cl)cc2)CCO3)CC1	i
C=CCN1CCc2c(cc(O)c(O)c2Cl)C(c2ccccc2)C1 (stereo not drawn)	?

The list continues.
SMILES	Methyltransferases
FC(F)(F)CN1C2CCC1CN(c1cncc(Cl)n1)C2	i
O=C(CCn1ccc2cc(S(=O)(=O)N3CCCCC3)ccc21)NCCCN1CCCC1=O	i
CCOc1ccc2c(-c3ccccc3)cc(=O)oc2c1	i
Cn1c(C(=O)NCCN2CCCCC2)cc2c1CCN(Cc1cccc(F)c1)C2	+
CC(C)CCn1c(=O)c2ccccc2n2c(CCC(=O)NCc3cccnc3)nnc12	i
CC1=C2CC3C(CCC3(C)O)C(C)(O)CC2OC1=O (stereo not drawn)	+
COc1ccc(CN2C[C@@H](F)[C@@H](OCc3nc4ccncc4[nH]3)C2)cc1	i
CC(C)OCCCn1c(=O)c2ccccc2n2c(CCC(=O)Nc3ccccc3)nnc12	i
Cc1nc2ccccc2n1CCNS(=O)(=O)c1cccc(Cl)c1	i
N#Cc1ccc(O[C@@H]2CCOC[C@H]2NC(=O)CCCn2cncn2)cc1	i
O=C1CN(Cc2cccc(F)c2)S(=O)(=O)c2ccccc2N1Cc1ccc(F)cc1	i
O=S(=O)(NCC1(COc2cnccn2)C[C@@H](O)[C@@H](O)C1)c1ccc(F)cc1 (stereo partly drawn)	i
O=C1c2cc3sccc3n2CC(C(=O)NC2CCCCCC2)(c2ccccc2)N1Cc1cccc(F)c1 (stereo not drawn)	i
COc1ccc2c(c1)O[C@H](O[C@@H]1O[C@H](CO)[C@@H](O)[C@H](O)[C@H]1O)C(=O)N2	i
O=C(CCc1nnc2n(Cc3ccc(F)cc3)c(=O)c3ccccc3n12)N1CCOCC1	i
O=C(CSc1nnc2n(CCc3ccccc3)c(=O)c3ccccc3n12)Nc1ccc(Cl)cc1	i
COc1ccc(C(=O)N2CCC(c3ncc(C)n3C(C)C)C2)cc1 (stereo not drawn)	i
CC1=C2C[C@@]3(C)[C@@H](CCC[C@@H]3C)C[C@@]2(O)OC1=O	i
CCC(C)NC(=O)c1ccc2c(=O)n(CCC(C)C)c3nn(CC(=O)Nc4ccccc4C)c(=O)n3c2c1 (stereo not drawn)	i
COc1ccc(CNC(=O)C2(C)Cn3cnc(C(=O)NCc4ccccc4)c3C(=O)N2C2CC2)cc1 (stereo not drawn)	i
COCCNC(=O)[C@@H](C)C1CCc2c(C)cc(OC)c(C)c2[C@@H]1O (stereo partly drawn)	i
CCC(C(=O)N1CCN(c2ccccn2)CC1)n1ccc2cc(S(=O)(=O)N3CCCCC3)ccc21 (stereo not drawn)	i
COc1ccc(-c2cc3n(n2)CC(C)(C(=O)NCc2ccccc2)N(Cc2ccc4c(c2)OCO4)C3=O)cc1 (stereo not drawn)	i
CCc1cccc(N2C(=O)c3cc(C(=O)OC)nn3CC2(C)C(=O)NC2CCCCC2)c1 (stereo not drawn)	i
COc1cnc(-n2cnc(C)n2)c2[nH]cc(C(=O)C(=O)N3CCN(C(=O)c4ccccc4)CC3)c12	i
O=C(O)Cc1ccc(O)c(O)c1	+
Cc1cc2c(cc3n2CC(C(=O)NC2CCCCC2)(c2ccccc2)N(Cc2ccccc2)C3=O)o1 (stereo not drawn)	i
O=C([C@@H]1Cc2nc[nH]c2CN1Cc1ccc(C(F)(F)F)cc1)N1CCOCC1	i
CCOC(=O)c1cc2n(n1)CC(C)(C(=O)NCc1ccccc1)N(c1cccc(SC)c1)C2=O (stereo not drawn)	i
O=C(NCc1cccnc1)C1CCN(C2CCN(Cc3ccc4c(c3)CCO4)CC2)CC1	i
c1ccc(-c2nnn3c2nc(NCCc2c[nH]c4ccccc24)c2ccccc23)cc1	i
Cc1cc(C)c(/C=C2\C(=O)Nc3ccc(Cl)cc32)[nH]1	?
COC(=O)c1ncn2c1C(=O)N(Cc1ccccc1Cl)C(C)(C(=O)NC1CCCCC1)C2 (stereo not drawn)	i
COc1cccc(CN2C(=O)c3cc4ccccc4n3CC2(C)C(=O)NC2CCCC2)c1 (stereo not drawn)	i
Cc1ccc(CCNC(=O)Cn2ccc3cc(S(=O)(=O)N4CCCC4)ccc32)cc1	i
CCCc1nnc(NC(=O)C2CC(=O)N(c3n[nH]c4cc(Br)ccc34)C2)s1 (stereo not drawn)	i
CCCCNC(=O)c1cc2n(n1)CC(C)(C(=O)NCc1ccccc1)N(C)C2=O (stereo not drawn)	i
C#CCn1c(=O)c2c(ncn2C)n(C)c1=O	i
CC1CCC(NC(=O)C2(C)Cn3c(cc4occc43)C(=O)N2CCN2CCCCCC2)CC1 (stereo not drawn)	i
CCOc1cccc(C2c3cccn3-c3sc4c(c3CN2C(=O)Nc2ccc(C)c(F)c2)CCCC4)c1 (stereo not drawn)	i
O=S(=O)(c1cccc(-c2nc(-c3ccccc3)no2)c1)N1CCCc2ccccc21	i
C=C1CCC2C(C(C)(C)O)CCC2(C)CC(O)C(=C)CCC1O (stereo not drawn)	i
O=C(NCc1ccccc1)c1ccc2c(=O)nc3c(-c4cccc(F)c4)n[nH]n3c2c1	i
COc1ccc2cc3n(c2c1)CC(C)(C(=O)NCC1CCCO1)N(Cc1cccc(Cl)c1)C3=O (stereo not drawn)	i
COc1cc(CO)ccc1O[C@@H]1O[C@H](CO)[C@@H](O)[C@H](O)[C@H]1O	i
CC(C)(C)C1CCN(C(=O)n2ncc(C(O)(c3ccccc3)c3ccccc3)n2)CC1	i
Cc1ccccc1NC(=O)CSc1nnc2n(CCc3ccccc3)c(=O)c3ccccc3n12	i
COc1ccc2c(c1)CC[C@@H](CN(C)CC(=O)O)[C@H]2c1ccccc1	i

Grouped by structure: the entries above containing a thiophene ring, fused or not
SMILES	Methyltransferases
O=C1c2cc3sccc3n2CC(C(=O)NC2CCCCCC2)(c2ccccc2)N1Cc1cccc(F)c1 (stereo not drawn)	i
CCOc1cccc(C2c3cccn3-c3sc4c(c3CN2C(=O)Nc2ccc(C)c(F)c2)CCCC4)c1 (stereo not drawn)	i

Following part.
SMILES	Methyltransferases
COc1cccc(CN2C(=O)c3cc4ccccc4n3CC2(C)C(=O)NC2CCCCC2)c1OC (stereo not drawn)	i
O=C(O)[C@H]1C[C@@H](C(=O)NCc2ccncc2)CN(C2CCOCC2)C1	i
Cc1ccc(C)c(NC(=O)Cn2c(=O)oc3cc(S(=O)(=O)N4CCCCC4)ccc32)c1	i
CN(C)C[C@@H]1CN(S(C)(=O)=O)C[C@H]1NC(=O)c1ccc(Cl)s1	i
Cc1noc(C)c1[S+](=O)([O-])N1CCCC1C(=O)N1CCC(c2nc3ccncc3[nH]2)CC1 (stereo not drawn)	i
C=C1CCC2C(C)(C(=O)O)CC(O)CC2(C)C1CC/C(C)=C/C(=O)O (stereo not drawn)	i
CC(C)NC(=O)c1ccc2c(=O)n(C(C)C)c3nn(Cc4cccc(F)c4)c(=O)n3c2c1	i
Cc1cc(-c2cc(OC(=O)c3ccccc3)ccc2Cl)cc2nnc(Nc3ccc(OCCN4CCCC4)cc3)nc12	i
CC1(C)CC2C(O)C3=C(CC(C)(O)C2C1)C(=O)OC3 (stereo not drawn)	i
O=C(Nc1cc(-c2ccncc2)nn1-c1ccccc1)c1ccc(Cl)cc1	i
Cc1ccc(C)c(OCC(=O)N[C@H]2CCOC[C@H]2C2CCOCC2)c1C	i
COC(=O)c1ncn2c1C(=O)N(c1cccc(C)c1C)C(C)(C(=O)NCCCOC(C)C)C2 (stereo not drawn)	i
COc1ccccc1-c1nc(SCC(=O)Nc2ccc(C)c(C)c2)n[nH]1	?
CC1(C(=O)NC2CCCCC2)Cn2c(cc3sccc32)C(=O)N1Cc1cccc(Cl)c1 (stereo not drawn)	i
CN1C(=O)c2cc(C(=O)NCCN3CCCCC3)nn2CC1(C)C(=O)NCc1ccccc1 (stereo not drawn)	i
COc1ccc(CN2C(=O)c3ccc(-c4ccco4)n3CC2(C)C(=O)NC2CCCC(C)C2C)cc1 (stereo not drawn)	i
Cn1cc(-c2cnc(Nc3cccnc3)c3c2CCO3)cn1	i
COc1cc2nc(=NC(=O)c3cccnc3)n3c(c2cc1OC)NCC3	i
COc1ccc(CNC(=O)N2CCCCC2c2nc(-c3cnccn3)n[nH]2)cc1 (stereo not drawn)	i
CC(C)Cn1c(=O)c2ccc(C(=O)NC(C)C)cc2n2c(SCC(=O)NC(C)C)nnc12	i
CC(C)(C)NCC(O)COc1cccc2c1CCCC2=O (stereo not drawn)	?
CC1CCC2(OC1)OC1CC3C4CCC5C[C@@H](O[C@@H]6O[C@H](CO[C@@H]7OC[C@@H](O)[C@H](O)[C@H]7O)[C@H](O)[C@H](O)[C@H]6O)CC[C@]5(C)C4CC[C@]3(C)C1C2C (stereo partly drawn)	i
CC1c2cccn2-c2sc3c(c2CN1C(=O)NC1CCCCC1)CCN(C)C3 (stereo not drawn)	i
CCc1ccc(CNC(=O)CNC(=O)C2(C)Cn3c(cc4ccccc43)C(=O)N2CC)cc1 (stereo not drawn)	i

Looked up by compound from the entries so far, two records:
SMILES	Methyltransferases
Cc1ccccc1NC(=O)CSc1nnc2n(CCc3ccccc3)c(=O)c3ccccc3n12	i
O=C(CSc1nnc2n(CCc3ccccc3)c(=O)c3ccccc3n12)Nc1ccc(Cl)cc1	i

Remaining list, next part.
SMILES	Methyltransferases
CC(C)OCCCNC(=O)c1ccc2c(=O)[nH]c3c(C(=O)NC4CCCC4)sc(=S)n3c2c1	i
COc1cccc2c1CCC[C@H]2CN(C)CCc1ccc2ccoc2c1	i
CCCN1C(=O)c2cc(C(=O)NCc3cccc(OC)c3OC)nn2CC1(C)C(=O)NC1CCCC1 (stereo not drawn)	i
O=C(c1cc(-c2ccccc2)n[nH]1)N1CCc2c(nc(-c3ccccc3)[nH]c2=O)C1	+
O=C(NCC1CCCN(C(=O)N2CCCC2)C1)c1ccc(-c2ccccc2)cc1 (stereo not drawn)	i
CC(=O)N1CCC([C@@H]2CN(Cc3cccnc3)C[C@H]2CO)CC1	i
O=C(O)c1ccc2c(c1)C1C=CCC1C(c1ccc(Cl)cc1)N2 (stereo not drawn)	+
Cc1ccc(CNC(=O)C2(C)Cn3nc(C(=O)N4CCOCC4)cc3C(=O)N2C)cc1 (stereo not drawn)	i
CN1CC2(CCN(Cc3ccc(C#N)cc3)CC2)CC(c2ccccc2)C1=O (stereo not drawn)	i
CCNc1ncnc2sc3c(c12)CCN(C(=O)COC)C3	i
Cc1ccccc1NC(=O)CN(C)S(=O)(=O)c1ccc2[nH]c3c(c2c1)CCCC3	i
CCn1nc(CC(C)C)cc1C(=O)N(C)C1CCCN(C2Cc3ccccc3C2)C1 (stereo not drawn)	i
Cc1ccc(Cn2c(=O)c3ccccc3n3c(CCC(=O)NC4CCCCC4)nnc23)cc1	i
N#Cc1cc(CN2CCCC(C(=O)Nc3cccc(-c4ccc(F)cc4)c3)C2)c[nH]1 (stereo not drawn)	+
COc1ccc(OCc2cc(C(=O)NC(CO)C(C)C)no2)c2ccccc12 (stereo not drawn)	+
Oc1ccc(C2CNCc3sccc32)cc1O (stereo not drawn)	+
CC(/C=C/C1(O)C2(C)COC1(C)CC(=O)C2)O[C@@H]1O[C@H](CO)[C@@H](O)[C@H](O)[C@H]1O (stereo partly drawn)	i
CC(C)[S+](=O)([O-])N1CCN(c2ccc(Cl)nn2)C(=O)C1	i
Cc1ccc(CNS(=O)(=O)c2cc3[nH]c(=O)[nH]c3cc2C)cc1	i
CC1CCN(S(=O)(=O)c2ccc3c(ccn3CCC(=O)NCCCN3CCOCC3)c2)CC1	i
Cc1nnc2n1C(C)CN(C(=O)Cn1nnc(-c3ccc(F)cc3)n1)C2 (stereo not drawn)	i
Cc1ccc(CN2C(=O)c3cc(-c4ccco4)nn3CC2(C)C(=O)NC2CCC(C)CC2)cc1 (stereo not drawn)	i
O=C(CCc1conc1-c1ccccc1F)NCc1ccc(Cl)cc1	i
CN1C(=O)c2cc3ccccc3n2CC1(C)C(=O)NCC(=O)NCCCc1ccccc1 (stereo not drawn)	i
CC1CCCCC1NC(=O)C1(C)Cn2c(cc3occc32)C(=O)N1Cc1cccc(Cl)c1 (stereo not drawn)	i
